# Source: PubChem BioAssay (several laboratories)
# INS promoter inh = inhibitors of insulin promoter-driven GFP, primary screen, imaging, TRM-6 cells (human fetal islet line), eGFP reporter, cell count; reporter expression induced with tamoxifen; inhibition, % at 2 µM; 130,000 tested, 0.9% active; AID 1273, 2008;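 active means inhibition above the mean plus 3 SD, with well images judged a real hit on visual review, cut at about 60% in these data, passing the limit was not always enough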
# RGS16-Gao HTS = modulators of RGS16 binding to Galphao, primary screen, biochemical, human proteins, multiplexed bead flow cytometry; bead-based flow cytometry RGS16-Galphao binding, fluorescence; actives lie on both sides; Regulator of G-protein signaling 16 (Homo sapiens) + Guanine nucleotide-binding protein …; binding response (% of control), % at 10 µM; 220,000 tested, 0.38% active;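 active means below 25% or above 175%, edge rows of some plates excepted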;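 further: Galphao activated by GDP with aluminum fluoride before binding; 100% = wells without compound and 0% = beads without RGS; some results beyond the cut were filed as inactive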
# GALR2 agonist = GALR2 receptor agonists, primary screen, cell-based | Galanin receptor type 2 (Homo sapiens), O43603 | GALR2-expressing cells, agonist activation read-out | activation, %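 (tested at 5 µM)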 | 140,000 tested, 0.48% active | AID 803, 2007;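 active means above mean plus 3 SD of all compounds, about 5% in these data, not always enough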;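 further: 0% = vehicle buffer wells and 100% = reference agonist at full effect; tested in CHO reporter cells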
# HSV augment = enhancers of HSV replication in host cells, fold increase, host cell viability | AID 1956, 2009 | HSV replication augmentation in cells | 220,000 tested, 0.005% active | maximum fold increase;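 active means peak rise of 1.5-fold or more in the series; tested in PC3 cells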;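 further: first round at 10 µM; read as green reporter fluorescence; hits show the peak of a series up to 25 µM; 1 = signal of infected wells without compound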
# PKD1 inh = inhibitors of human PKD1 kinase, biochemical, fluorescence polarization; Serine/threonine-protein kinase D1 (Homo sapiens), Q15139; PKD1 kinase fluorescence polarization assay; inhibition, %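 (about 10 µM by stock and volumes)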; 200,000 tested, 0.056% active; AID 797, 2007;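 active means inhibition of 50% or more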;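 further: controls were vehicle for no effect and a reference inhibitor for full effect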
# Target sequence (Q15139 whole entry, looked up): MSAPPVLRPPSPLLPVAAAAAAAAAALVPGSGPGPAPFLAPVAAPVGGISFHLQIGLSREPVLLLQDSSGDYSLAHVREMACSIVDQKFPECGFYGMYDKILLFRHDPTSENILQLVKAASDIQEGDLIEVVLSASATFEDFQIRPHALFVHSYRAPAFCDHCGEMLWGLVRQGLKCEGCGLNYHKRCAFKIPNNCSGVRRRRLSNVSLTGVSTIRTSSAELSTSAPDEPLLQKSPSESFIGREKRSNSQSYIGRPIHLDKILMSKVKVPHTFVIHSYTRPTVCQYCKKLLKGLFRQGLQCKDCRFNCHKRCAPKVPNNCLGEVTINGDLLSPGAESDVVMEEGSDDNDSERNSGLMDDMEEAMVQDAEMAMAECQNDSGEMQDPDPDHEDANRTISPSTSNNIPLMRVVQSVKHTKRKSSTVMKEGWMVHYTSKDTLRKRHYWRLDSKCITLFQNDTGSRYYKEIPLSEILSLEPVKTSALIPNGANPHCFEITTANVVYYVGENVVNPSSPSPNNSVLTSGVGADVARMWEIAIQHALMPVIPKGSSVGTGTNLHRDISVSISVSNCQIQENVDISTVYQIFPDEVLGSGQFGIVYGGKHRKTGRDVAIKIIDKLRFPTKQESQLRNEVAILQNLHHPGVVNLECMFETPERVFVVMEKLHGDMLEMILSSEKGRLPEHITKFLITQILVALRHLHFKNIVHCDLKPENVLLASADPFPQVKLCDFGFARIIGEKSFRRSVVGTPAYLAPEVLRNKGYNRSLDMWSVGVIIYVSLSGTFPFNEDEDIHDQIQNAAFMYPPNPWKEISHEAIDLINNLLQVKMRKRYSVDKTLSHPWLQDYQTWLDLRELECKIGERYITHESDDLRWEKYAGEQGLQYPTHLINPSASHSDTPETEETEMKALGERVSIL
# INS promoter inh cell count = recorded beside INS promoter inh, whose call it bears; normalized cell count, %; measured here: cell count, toxicity; reference of the scale not given here;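 cells exposed to compound for 48 h; stained nuclei by imaging scaled within each plate; lower means fewer cells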
# HSV augment primary fold = also measured in HSV augment; calls as there; fold increase; compound at 10 µM; measured here: primary screen fold increase 10 uM; tested in PC3 cells;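 GFP signal in the first replicate; 1 = infected wells without compound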
# An asterisk follows results filed as active; i = inactive; . = no result given; [ ] = another dose, or the depositor's remark.
SMILES,INS promoter inh,INS promoter inh cell count,RGS16-Gao HTS,GALR2 agonist,HSV augment,HSV augment primary fold,PKD1 inh
Cc1cc(C)n(-c2nc(Nc3ccccc3C)nc(-n3nc(C)cc3C)n2)n1,-6,50,97,1.1,i,0.72,-7
Cc1cc(C)nc(SCC(=O)Oc2ccc3oc(=O)cc(C)c3c2)n1,10,82,108,-2.1,i,0.9,-3
O=C(CSc1nnc(-c2cccnc2)n1-c1ccc(F)cc1)NCc1ccc2c(c1)OCO2,3,174,103,-0.6,i,1,-10
O=C1CC(N(Cc2ccc3c(c2)OCO3)C(=O)Nc2ccc(F)cc2)C(=O)N1c1ccccc1 (stereo unspecified),-200,75,86,-1.6,i,0.92,-4
COC(=O)c1cccc(NC(=O)c2cnoc2C)c1,-135,86,95,-0.7,i,0.85,3
CCC(C)[C@H](NC(=O)NC1CCCc2ccccc21)C(=O)OC (stereo partly specified),.,.,95,.,i,0.91,.
O=C(O)c1ccc(CN2CCCCC2)o1,16,145,107,-1.2,i,0.89,-12
OC1(c2ccccc2F)CCN(Cc2nnnn2CCc2ccccc2)CC1,29,62,97,-2.1,i,1.1,5
CSc1nc(-c2ccc(Cl)cc2)c(C#N)c(=O)[nH]1,.,.,101,.,i,0.91,-3
C=CCN(c1ccc(C(=O)NC(C)C)cc1)S(C)(=O)=O,i,49,48,-1.7,i,0.9,-2
CCc1[nH]c(=S)c(C#N)c(-c2ccccc2)c1C(=O)OC,-133,126,90,-0.2,.,.,-2
Cc1cccc(NC(=O)C2CC(=O)N(c3ccccc3)C2)c1C (stereo unspecified),24,117,102,-4.3,i,1.2,-10
CSc1nc(C)cc(OCNC(=O)c2cccs2)n1,-29,91,101,-0.9,.,.,-5
Cc1cc(C)c2c(CN3CCN(Cc4ccc5c(c4)OCO5)CC3)cc(=O)oc2c1C,64,132,104,-0.3,i,0.9,-2
Cc1[nH]c(=O)[nH]c(=O)c1NS(=O)(=O)c1ccc2c(c1)CCCC2,58,85,101,-0.9,i,0.87,1
COCCn1nnnc1C(c1cccs1)N1CCN2CCCC2C1 (stereo unspecified),15,100,91,.,i,0.99,-5
Cc1ccc2c(CC(=O)NNC(=O)c3ccccc3)coc2c1,-8,90,102,-1.4,i,0.97,3
CCc1ccccc1NC(=O)CSC1=C(C#N)C(c2ccc(O)c(OC)c2)C2=C(CCCC2=O)N1 (stereo unspecified),.,.,103,-1.1,i,1,-3
COc1ccc2[nH]c3c(c2c1)CN(C)CC3,.,.,60,-1.9,i,0.76,0
CC(=O)Nc1ccc(S(=O)(=O)Nc2ncccn2)cc1,.,.,101,-1.7,i,1.1,-8
CCN(CC)C(=O)C1CCCN(C/C=C/c2ccccc2)C1 (stereo unspecified),.,.,98,-0.9,i,1.3,4
CN(CCO)c1nc(N)c2c(N)nc3c(c2c1C#N)CC(=O)N3Cc1cccs1,.,.,101,.,i,1.1,-1
COc1ccccc1NC(=S)NC(=O)c1ccc(Cn2cc(Br)cn2)cc1,-7,58,101,0.8,i,0.76,-3
CCn1nc(C(=O)Nc2nc3ccc(C)cc3s2)c2ccccc2c1=O,-37,76,101,-0.8,i,0.9,-7
COc1cc(CNCCNCC(C)O)ccc1OCc1ccc(Cl)nc1 (stereo unspecified),.,.,60,-0.3,i,1.1,-9
CC(=O)c1ccc(OCCn2cnc3ccccc32)cc1,18,94,192*[activator],-1.4,i,1.1,1
COCCN1CC(O)=C(c2nc3ccccc3c(=O)[nH]2)C1=N,-112,92,104,-1.0,i,0.9,2
Cn1nc(C(F)(F)F)c(C(=O)Nc2ccc(F)cc2)c1Cl,-23,130,100,.,i,0.77,-2
COc1cccc(Nc2nc3ccccc3nc2NS(=O)(=O)c2cccs2)c1,12,114,105,-1.1,i,1.2,1
CCNC(=O)COC(=O)COc1ccc(Cl)cc1C,0,97,110,0.5,i,0.92,6
O=C(c1ccc(-c2ccccc2)cc1)C1CCCN(C(=O)Cn2cncn2)C1 (stereo unspecified),.,.,103,.,i,0.96,-4
Cc1cc(/C=N/NC(=O)c2cccc(N(C)C)c2)c(C)n1-c1cc(C(=O)O)cc(C(=O)O)c1,9,98,100,.,i,0.96,-5
Cc1cc2c(cc1C)CSC(c1ccccc1O)SC2,25,115,108,-1.6,i,0.83,2
O=[N+]([O-])c1cccc2cn[nH]c12,4,131,.,-1.2,i,0.91,-1
OCCNc1nc(Cl)nc(NCc2ccco2)n1,-42,120,106,.,i,1.1,-6
COc1cc(C(=O)OCC(=O)Nc2ccc(C(C)=O)cc2)ccc1OCC(=O)N1CCOCC1,-14,88,104,0.1,i,1,-3
CCOC(=O)c1c(C)oc2ccc(OCC(N)=O)cc12,6,105,98,-1.7,i,0.95,9
O=C(OCCN1C(=O)c2ccccc2C1=O)c1ccccc1,-54,113,98,.,.,.,0
C=CCn1ncc(OC)c(Cl)c1=O,54,66,107,-4.8,i,1,1
COc1ccc(CN2CCNC(=O)C2CC(=O)N(C)Cc2ccon2)cc1OC (stereo unspecified),.,.,101,.,i,0.91,-1
CCCCc1ccc(NC(=O)c2cnccn2)cc1,-21,123,104,.,i,0.92,0
Cc1cc(N2CCOCC2)c(F)cc1C(=O)c1ccccc1,8,309,100,-0.3,i,1,-2
O=C(CN1CCCCCC1)Nc1ccc(S(=O)(=O)N2CCOCC2)cc1,.,.,102,.,i,0.98,-2
CCCc1c(O)c2ccccc2n(-c2ccccc2)c1=O,-4,103,91,-1.5,i,0.92,-7
COc1ccc(NCC(=O)Nc2ccccc2C#N)cc1Cl,20,102,96,-2.6,i,0.9,-1
CC(C)c1nnc(SCC(=O)NCc2ccc3c(c2)OCO3)n1C,-138,95,91,-1.2,i,0.91,-8
CCOC(=O)C1=C(c2ccccc2)O/C(=C(/C#N)C(F)(F)F)S1,-14,66,101,1.3,i,0.55,-6
CCC(C)(C)NC(=O)CN(C(=O)c1snc(C(N)=O)c1N)c1ccc(OC)c(OC)c1,-10,92,106,-6.2,i,0.91,-2
COc1ccccc1NC(=O)CSc1nnc(CNC(=O)COc2ccc(Cl)cc2)o1,14,102,67,-0.8,i,0.91,3
O=c1oc(-c2ccc(Cl)c(Cl)c2)nn1-c1ccc(C(F)(F)F)cn1,.,.,105,.,i,0.91,.
COc1ccc(N(CC(=O)N2CCc3ccccc3C2)S(C)(=O)=O)cc1,-32,165,102,-3.0,i,1.1,0
COC(=O)c1sccc1NC(=O)CC1C(=O)NCCN1C(=O)Nc1cc(Cl)ccc1OC (stereo unspecified),.,.,101,.,i,0.88,.
Cc1ccc(C(=O)CSc2nnc(-c3ccccc3)o2)cc1,-113,116,103,-1.8,i,0.95,-14
CN1CCc2c(sc3c2c(=O)n(-c2ccccc2)c2nnc(SCc4ccc(Cl)cc4)n32)C1,24,92,94,0.5,i,1,2
COc1cccc(CNc2ccc([N+](=O)[O-])c(NCC(=O)O)n2)c1,0,121,99,.,i,0.96,0
Cc1noc(C)c1S(=O)(=O)N1CCCC(C(=O)NCCc2ccc(Cl)cc2)C1 (stereo unspecified),8,31,97,2.0,i,1,-7
Cc1cccc(C)c1OCc1nnc(SCC(=O)NCCc2ccccc2)o1,-11,97,40,-0.6,i,0.82,-4
O=C(NCc1nc(-c2ccccc2)no1)c1cccs1,10,93,98,-1.9,i,0.88,0
COc1ccc(-c2cn3cccnc3n2)cc1NC(=O)c1cc(OC)c(OC)c(OC)c1,.,.,105,.,i,0.89,0
CCN(CC(=O)Nc1cc(C)nn1-c1nc(C)cc(C)n1)Cc1ccccc1,-12,105,85,-1.2,.,.,-7
# (further entries)
SMILES,INS promoter inh,INS promoter inh cell count,RGS16-Gao HTS,GALR2 agonist,HSV augment,HSV augment primary fold,PKD1 inh
Cc1cccc(C(C)C)c1NC(=O)c1cccnc1,-218,78,99,0.4,i,1,3
CC1CCc2nn(CC(=O)N3CCc4ccccc43)cc2C1 (stereo unspecified),.,.,93,0.2,i,1.4,-7
CC(C)(C)OC(=O)N/N=C/c1cc(N=Nc2ccccc2)ccc1O,.,.,100,-0.1,i,1.4,-9
COc1cc(OC)c(C2N(c3ccccn3)C(=O)C3CCCN32)cc1OC (stereo unspecified),.,.,86,-1.6,i,0.86,-1
COC(=O)c1ccccc1NC(=O)COC(=O)CSCC(=O)N1CCOCC1,.,.,104,-0.4,i,0.86,6
CCc1ccc2nc(Nc3nc(COC)cc(=O)[nH]3)nc(C)c2c1,0,121,100,-1.3,i,1.1,2
O=C(NCc1nc(-c2ccccc2)no1)c1ccc2c(c1)OCO2,59,135,103,-0.6,i,1,-6
O=C(CSc1nnc(-c2cccs2)o1)N1CCOCC1,36,141,26,-1.8,i,1.1,-9
O=C1NCCCc2c1oc1cc(Br)c(O)c(Br)c21,-191,81,96,-1.5,i,0.88,13
CCOc1ccc(Br)cc1S(=O)(=O)NCc1ccc(S(N)(=O)=O)cc1,.,.,96,.,i,0.98,-4
COc1cc(NS(=O)(=O)c2ccc(NC(=S)NC(=O)/C=C/c3ccco3)cc2)ncn1,.,.,100,.,i,1.1,2
Cc1cccc(C)c1NC(=O)c1ccc(-n2cncn2)nc1,-36,135,105,-0.9,i,0.93,0
COc1ccc(C2CC(C(F)(F)F)n3ncc(C(=O)Nc4c(C)n(C)n(-c5ccccc5)c4=O)c3N2)cc1 (stereo unspecified),-5,115,101,-0.5,i,0.81,-6
O=C(NCCO)Nc1ccc(Cl)cc1,21,62,92,.,i,0.9,-2
Cc1ccc(S(=O)(=O)NNC(=O)c2csnn2)cc1,23,131,103,-0.9,i,0.92,-1
CCn1cc(/C=N\NC(=O)Cc2ccc(Cl)cc2)cn1,42,164,106,-1.1,i,1.2,-1
Cc1cccc(NC(=O)CSc2nnc(CNC(=O)c3cccs3)o2)c1C,27,52,92,.,i,1,-4
CC(Oc1ccccc1)C(=O)NCc1cccnc1 (stereo unspecified),3,120,102,-3.4,i,0.9,-3
Cc1cccc(NS(=O)(=O)c2cccc3nonc23)c1,-25,115,97,.,i,1.1,-12
CC1CN(C(c2ccco2)c2sc3ncnn3c2O)CC(C)O1 (stereo unspecified),.,.,111,-4.3,i,0.92,-10

# Of the compounds above, these have a CF3 group:
SMILES,INS promoter inh,INS promoter inh cell count,RGS16-Gao HTS,GALR2 agonist,HSV augment,HSV augment primary fold,PKD1 inh
Cn1nc(C(F)(F)F)c(C(=O)Nc2ccc(F)cc2)c1Cl,-23,130,100,.,i,0.77,-2
CCOC(=O)C1=C(c2ccccc2)O/C(=C(/C#N)C(F)(F)F)S1,-14,66,101,1.3,i,0.55,-6
O=c1oc(-c2ccc(Cl)c(Cl)c2)nn1-c1ccc(C(F)(F)F)cn1,.,.,105,.,i,0.91,.
COc1ccc(C2CC(C(F)(F)F)n3ncc(C(=O)Nc4c(C)n(C)n(-c5ccccc5)c4=O)c3N2)cc1 (stereo unspecified),-5,115,101,-0.5,i,0.81,-6

# Entries of single compounds as entered above. Order of values: INS promoter inh, INS promoter inh cell count, RGS16-Gao HTS, GALR2 agonist, HSV augment, HSV augment primary fold, PKD1 inh
# Results for `O=C1NCCCc2c1oc1cc(Br)c(O)c(Br)c21` : -191, 81, 96, -1.5, i, 0.88, 13
# Results for `O=C(c1ccc(-c2ccccc2)cc1)C1CCCN(C(=O)Cn2cncn2)C1` (stereo unspecified) : ., ., 103, ., i, 0.96, -4
# Results for `CC(=O)Nc1ccc(S(=O)(=O)Nc2ncccn2)cc1` : ., ., 101, -1.7, i, 1.1, -8
# Results for `COc1cccc(CNc2ccc([N+](=O)[O-])c(NCC(=O)O)n2)c1` : 0, 121, 99, ., i, 0.96, 0
# Results for `Cc1cc(N2CCOCC2)c(F)cc1C(=O)c1ccccc1` : 8, 309, 100, -0.3, i, 1, -2

# (list continues)
SMILES,INS promoter inh,INS promoter inh cell count,RGS16-Gao HTS,GALR2 agonist,HSV augment,HSV augment primary fold,PKD1 inh
COC(=O)c1cc2oc(C)cc2n1CC(=O)N(C)c1ccccc1,-72,59,86,-2.3,i,1,-4
N#Cc1nc(COc2ccc(F)cc2)oc1N1CCCC1,.,.,105,0.0,i,0.8,-8
Cc1ccc(N(C(=O)CCC(=O)Nc2cc(C)on2)C(C(=O)NC2CCCC2)c2ccncc2)cc1 (stereo unspecified),-44,111,117,-0.9,.,.,-3
CCOC(=O)N1CCC(N2CCN(S(=O)(=O)c3ccc([N+](=O)[O-])cc3)CC2)CC1,.,.,107,.,i,1,.
COc1ccc(-n2c(SCC(N)=O)nnc2-c2cccnc2)cc1,3,124,.,-3.8,i,0.98,0
CCCCC(NC(=O)c1cccc(Br)c1)C(=O)O (stereo unspecified),-12,98,103,.,i,0.99,-1
COc1ccc(C2=C(C#N)C(=O)OC2)cc1,22,97,102,-0.5,i,0.71,-11
CCOC(=O)/C(=N\Nc1ccccc1Cl)N1CCN(Cc2ccccc2)CC1,.,.,110,-0.6,i,0.96,2
